# Bioassay records (PubChem)
# 2A StopGo = lowers the luciferase signal of an FMDV 2A StopGo reporter | Potency, µM (titrated, usually from 57.9 µM), inactives show top-dose signal change, negative = less light | human cells with a luciferase reporter of 2A StopGo recoding; control for the full effect not named in the record | AID 1159524 | 410,000 tested, 1.2% active; active = well fitted falling curve with a large enough effect; inconclusive = small, poorly fitted or top-dose-only effect; inactive = no such curve, though single readings can be large or run the other way; tested in HEK293T cells; also: % is scaled to controls: 0 for no effect and ±100 for the full control effect; nearly all actives have a fitted effect of over 45% in size; luciferase light after 4 h
# MARV entry inh = Marburg virus entry inhibition; Marburg virus pseudotyped entry inhibition, cell reporter; control for the full effect not named in the record; about a third of the inactives were read at about 46 µM; 300,000 tested, 1.8% active; Potency, µM (titrated, usually from 37.8 µM), for inactives: top-dose activity change, negative = inhibition, actives largely listed as inhibitors; active = well fitted inhibition curve with a large enough effect; inconclusive = small, poorly fitted or top-dose-only effect, or effect the other way; inactive = flat fitted curve, though single readings scatter; tested in HEK293 cells; about a fifth of its hits are not listed in these tables; also: % is scaled to controls: 0 for no effect and ±100 for the full control effect; luciferase read-out
# Lassa entry inh = Lassa virus entry inhibition | Lassa virus pseudotype entry inhibition, cell reporter; control for the full effect not named in the record | Potency, µM (highest dose often 37.9 µM), for inactives: top-dose activity change, negative = inhibition, actives largely listed as inhibitors | 300,000 tested, 1.2% active; active means well fitted inhibition curve with a large enough effect; inconclusive means small, poorly fitted or top-dose-only effect, or effect the other way; inactive means flat fitted curve, though single readings scatter; tested in HEK293 cells; also: % is scaled to controls: 0 for no effect and ±100 for the full control effect; nearly all actives have a fitted effect of over 50% in size; luciferase read-out
# Cruzain Triton = inhibitors of Trypanosoma cruzi cruzain with detergent | P25779 | purified cruzain, Z-FR-AMC fluorescence, 0.01% Triton | Potency, µM, for the others: max response, negative = inhibition, hits mostly inhibitors | 200,000 tested, 0.43% active | AID 1478;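 also: plate controls were neutral wells for no effect and buffer without enzyme for full effect; nearly all actives have a fitted effect of over 40% in size; top concentration of the series not given in the record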
# Target sequence (P25779 123-467 limits assumed): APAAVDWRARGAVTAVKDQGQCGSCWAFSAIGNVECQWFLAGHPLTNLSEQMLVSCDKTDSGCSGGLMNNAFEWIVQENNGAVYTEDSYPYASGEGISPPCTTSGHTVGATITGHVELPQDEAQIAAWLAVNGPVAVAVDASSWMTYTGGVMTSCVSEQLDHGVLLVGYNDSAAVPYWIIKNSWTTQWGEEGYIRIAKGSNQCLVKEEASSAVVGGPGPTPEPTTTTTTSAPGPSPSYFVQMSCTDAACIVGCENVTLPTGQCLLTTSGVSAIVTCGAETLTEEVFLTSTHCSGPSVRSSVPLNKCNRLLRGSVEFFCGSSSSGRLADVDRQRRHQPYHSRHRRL
#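 Purified cruzain (1.5 nM final) was preincubated with compounds for 15 min at room temperature in 100 mM sodium acetate pH 5.5, 5 mM DTT, 0.01% Triton X-100. Reaction started with 2 uM Z-FR-AMC; AMC fluorescence change over 60 s gave activity.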
# NS1 function inh = inhibitors of influenza NS1 protein function; S. cerevisiae slowed by influenza A NS1, growth recovery by OD600; 270,000 tested, 0.4% active; Potency, µM (highest dose often 46.1 µM), for inactives: top-dose activity, positive = more growth; AID 2326; active means well fitted rising curve with a large enough effect; inconclusive means small, poorly fitted or top-dose-only effect; inactive means no such curve, though single readings can be large or run the other way; also: nearly all actives have a fitted effect of over 50% in size
#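 OD600 was taken as the measure of yeast growth restored by compound in an NS1-expressing S. cerevisiae strain. Cells had been washed out of glucose medium and diluted 1:100 into galactose -URA medium, pH 6.0.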
# Cruzain noTriton = inhibitors of Trypanosoma cruzi cruzain without detergent. purified cruzain, Z-FR-AMC fluorescence, no detergent. Potency, µM, inactives show max response, negative = inhibition, actives largely listed as inhibitors. 200,000 tested, 2.3% active;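 also: plate controls were enzyme without inhibitor for no effect and buffer without enzyme for full effect; nearly all actives have a fitted effect of over 40% in size; top concentration of the series not given in the record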
#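 Purified cruzain at 1.5 nM, pre-incubated 15 min with compound at room temperature in 100 mM sodium acetate pH 5.5, 5 mM DTT, 0.00005% Triton X-100. Reaction started with 2 uM Z-FR-AMC; AMC fluorescence increase over 60 s gives rate.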
# RE007 growth inh = less growth of the S. pombe RE007 Vpr strain; S. pombe RE007 Vpr strain, BacTiter-Glo ATP luminescence, 24 h; control for the full effect not named in the record; 360,000 tested, 0.21% active; AID 651644; Potency, µM (titrated, usually from 92.2 µM), inactives show at the highest dose activity change, negative = less growth; active = well fitted falling curve with a large enough effect; inconclusive = small, poorly fitted or top-dose-only effect; inactive = no such curve, though single readings can be large or run the other way;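 also: % is scaled to controls: 0 for no effect and ±100 for the full control effect; nearly all actives have a fitted effect of over 50% in size; the assay follows cell death caused by Vpr and the record does not say whether a fall means rescue or toxicity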
#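 Fission yeast RE007 carrying one integrated HIV-1 vpr copy, seeded at OD 0.01 in PMG+AL medium with 23 nL pinned compound. Grown 24 h at 30 degrees; viability read by BacTiter-Glo luminescence after 5 min.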
# SARS PLP yeast = inhibitors of SARS-CoV papain-like protease in yeast; S. cerevisiae expressing SARS-CoV PLpro, growth rescue; control for the full effect not named in the record; Potency, µM (series often up to 32.9 µM), for the others: top-dose activity, positive = growth rescue; 330,000 tested, 0.19% active; AID 485353; active means well fitted rising curve with a large enough effect; inconclusive means small, poorly fitted or top-dose-only effect; inactive means no such curve, though single readings can be large or run the other way; also: 0% is about no effect; nearly all actives have a fitted effect of over 55% in size; growth read by luminescence after 48 h
# The depositor's hits bear a star; ? = inconclusive; · = not tested or not shown; & = joins results of further samples; [ ] = remark or other dose. Unless noted, calls follow the shape of the dose curve; as a rule, active = well fitted curve in the direction sought with a large enough effect; inconclusive = small, poorly fitted or top-dose-only effect, or another doubt; inactive = no such curve, though single readings can be large; an effect the other way counts as inactive or inconclusive. Potency is read from the fitted curve at half-maximal effect.
SMILES,2A StopGo,MARV entry inh,Lassa entry inh,Cruzain Triton,NS1 function inh,Cruzain noTriton,RE007 growth inh,SARS PLP yeast
Cc1ccc(CCNC(=O)c2ccc(CSCc3ccccc3Cl)o2)cc1,-23%,·,-1%[46.1 µM],-0.8%,·,8%,·,·
COc1ccccc1N1CCN(C(=O)c2cc3c(=O)n(Cc4cccs4)ccc3nc2C)CC1,?,·,-2%[46.1 µM],-12%,·,?,·,·
O=C(c1cccnc1)N1CCc2ccccc21,20%,15%,15%,-1.3%,5%,-7%,3%,2%
O=C(NCCC1CCCCN1S(=O)(=O)c1ccccc1)C(=O)NCc1ccco1 (stereo not given),-17%,3%[46.1 µM],-15%,·,·,·,0%,1%
CN(CC(=O)Nc1cccc(F)c1)C(=O)c1cccc(S(=O)(=O)N2CC3(C)CC2CC(C)(C)C3)c1 (stereo not given),10%,?,-10%[46.1 µM],·,·,·,-9%,2%
COC(=O)c1sc(N2C(=O)C(=O)/C(=C(/O)c3ccccc3)C2c2ccco2)nc1C (stereo not given),-9%,?,0%,-8.9%,?,-5%,1%,12%
Cc1c(C(=O)N2CCCCCC2)c(S(=O)(=O)NCc2ccccc2Cl)c(C)n1C,49%[activator],-24%[46.1 µM],-17%[46.1 µM],·,6%,·,6%,1%
C#CCOCCOCCOCCNc1nc(N2CCOCC2)nc(N2CCN(C(=O)Cn3cc(CC(C)O)nn3)CC2)n1 (stereo not given),3%,-16%,-4%,0.7%,-7%,-8%,19%,-1%
COc1ccc(NC(=O)c2cc3ccccc3o/c2=N\NS(=O)(=O)c2ccc(C)cc2)cc1,60%[activator],·,·,·,-5%,·,4%,-2%
COc1cccc(OC)c1C(=O)NC(=O)Oc1c(F)cccc1F,-5%,3%[46.1 µM],-5%[46.1 µM],·,-13%,·,-4%,-1%
CCCC(=O)C1=C(c2ccc(C)c(C)c2)N(C(=O)CCC)n2c(CC)nnc2S1,-23%,·,-23%[46.1 µM],-4.1%,·,-2%,·,·
Cc1ccc(CCNC(=O)CNC(=O)c2cccs2)cc1,41%[activator],-1%[46.1 µM],-1%,·,·,·,-1%,-7%
NC(=O)c1ccc(NC(=O)COC(=O)c2cc([N+](=O)[O-])ccc2N2CCOCC2)cc1,-14%,?,1%,·,·,·,-14%,·
O=C(NCCn1c(C(F)(F)F)nc2ccccc21)[C@H]1CCCN1c1nc(CN2CCCCC2)cs1,4%,·,·,·,4%,·,-14%,1%
Cc1ccc(NC(=O)CSc2nnc(-c3ccc(Br)cc3)o2)c(C)c1,-10%,·,-2%[46.1 µM],-0.4%,·,-3%,·,·
Cc1nc(C)n(C(C)CNC(=O)c2ccco2)n1 (stereo not given),-9%,17%,-1%,·,4%,·,4%,4%
C=CCn1c(SCC(=O)NC2CCCCC2)nnc1C(C)NC(=O)c1cccs1 (stereo not given),-1%,1%,12%,3.9%,0%,1%,15%,·
Cc1ccc(NC(=O)CN(C)CC(=O)Nc2cccc(F)c2)cc1S(=O)(=O)N1CCCCCC1,25µM*,?,?,·,0%,·,7%,-1%
O=C(c1ccc(F)cc1)N1CCC(C(=O)N2CCN(S(=O)(=O)c3ccccc3Br)CC2)CC1,-19%,?,-19%,·,·,·,-8%,6%
Cc1ccc(O)c(N)c1,34%[activator],·,·,-0.1%,·,-19%,-26%,-3%
Oc1ccc(N2CCN(C(c3cccs3)c3nnnn3CCc3ccccc3)CC2)cc1 (stereo not given),8%,?,?,1.5%,15%,?,-3%,-5%
CCC(C(=O)OCC(=O)c1ccc2c(c1)NC(=O)CO2)c1ccccc1 (stereo not given),?,?,?,·,·,·,8%,-8%
COc1ccc(CCNC(=S)Nc2cc(C)ccc2C)cc1,-25%,-24%,4%,-6.6%,-183%,-10%,-2%,-15%
Cc1ccc(C23CC4CC(CC(C(=O)NN)(C4)C2)C3)cc1,-3%,·,·,·,8%,·,6%,-8%
COc1ncccc1C(=O)N1CCCC(N2CCN(c3ccc(F)cc3)CC2)C1 (stereo not given),-3%,-10%,2%,·,·,·,9%,·
CCOc1ccc(N2C(=O)CC(NC3CCCCNC3=O)C2=O)cc1 (stereo not given),-4%,?,21%,-0.4%,-4%,4%,?,-55%
COc1ccccc1C(=O)COC(=O)c1cccs1,68%[activator],0%,17%,·,·,·,-26%,-16%
OCCC1CN(Cc2nc(-c3ccccc3)cs2)CCN1CCc1ccccc1 (stereo not given),?,·,·,·,-5%,·,-3%,-1%
O=C1C=C(c2ccccc2)CC(c2cccs2)C1n1cnc([N+](=O)[O-])c1 (stereo not given),-18%,-21%[46.1 µM],-2%,-4.8%,-22%,?,10%,-15%
Cn1nnnc1SCC(=O)Nc1nc2ccccc2s1,50%[activator],25%[46.1 µM],10%,·,-1%,·,2%,1%
COc1ccc(OCC(O)Cn2c(NCCO)nc3c2c(=O)n(C)c(=O)n3C)cc1 (stereo not given),?,?,-24%[46.1 µM],-3.3%,·,-4%,·,·
COCOC1CCC2C3CCC4=CC(=O)CCC4=C3C=CC12C (stereo not given),0%,26%,8%,·,·,·,50%,·
Cc1ccc(C(=O)c2cn(Cc3ccccc3)c3c(F)cc(F)cc3c2=O)cc1,-20%,1%[46.1 µM],28%[46.1 µM],0.9%,·,4%,·,·
COC(=O)c1ccc(CNC(=O)COC(=O)C2CC3C=CC2C3)cc1 (stereo not given),1%,11%[46.1 µM],3%,·,-4%,·,1%,-1%
CC(C)Oc1ccc(C2CC(=O)N(C)C2=O)cc1 (stereo not given),17%,·,·,·,5%,·,-3%,-1%
CNc1ccccc1C(=O)OCC(=O)c1ccc(F)cc1,36%[activator],?,-2%,·,·,·,4%,1%
CCn1cc(C(=O)Nc2ccc(C(C)C)cc2)c2cc(OC)c(OC)cc2c1=O,?,?,-18%[46.1 µM],-13%,·,?,·,·
Cc1ccc(C2=Nc3ccccc3N(CC(=O)NCc3ccc(Cl)cc3)C(=O)C2)cc1C,30%,·,25%[46.1 µM],-3.4%,·,-22%,·,·
Cc1ccc(Cl)cc1NC(=O)NCCN1CCCCC1,-17%,0%,4%,·,-3%,·,-2%,-3%
COc1ccc(-c2csc(N=C(N)N)n2)cc1,12%,16%[46.1 µM],19%[46.1 µM],·,-3%,·,1%,0%
COc1cc(OC)cc(C(=O)NNS(=O)(=O)c2ccc(F)cc2)c1,-11%,·,·,·,5%,·,3%,-2%
CCOC(=O)C1=C(CS(=O)(=O)c2c(C)cc(C)cc2C)NC(=O)NC1c1cccc(OC)c1 (stereo not given),-10%,5%[46.1 µM],-25%[46.1 µM],-3.3%,·,-7%,·,·
COc1cc(/C=N/NC(=O)c2ccccc2NS(=O)(=O)c2cccs2)ccc1O,-10%,17%[46.1 µM],26%,·,·,·,30%,0%
COCCn1c(SCC(=O)Nc2ccc(C(F)(F)F)cc2)nc2c([nH]c3ccccc32)c1=O,-6%,·,26%[46.1 µM],-1.1%,·,5%,·,·
Cc1ccc(S(=O)(=O)c2nc(S(C)(=O)=O)sc2N2CCC(C(N)=O)CC2)cc1,9%,8%[46.1 µM],16%[46.1 µM],·,2%,·,3%,-3%
CC(C)c1ccc(/C=C/C(=O)NNC(=O)c2cccnc2)cc1,9%,12%,-22%,2.4%,-8%,2%,1%,-2%
COc1ccccc1CCNC(=O)CCn1c(=O)oc2ccccc21,-5%,·,·,-5.2%,-6%,5%,20%,4%
Cc1ccc(N2CN=c3s/c(=C\c4ccccn4)c(=O)n3C2)cc1,17%,13%,14%,-4.7%,7%,-4%,-13%,2%
Cc1ccc(-c2ccnc3nc(-n4cccc4)nn23)o1,-17%,4%[46.1 µM],-3%,·,·,·,-10%,1%
Cc1cccc(N2CCN(C(=O)C3CCN(S(=O)(=O)c4c(C)noc4/C=C/c4ccccc4F)CC3)CC2)c1C,-10%,·,15%[46.1 µM],-2.5%,·,17%,·,·
COc1ccccc1CNC(=O)c1ccc(N2CCCC2)c(NC(=O)NCc2ccc(C)cc2)c1,?,·,5%[46.1 µM],-3.7%,·,8%,·,·
COc1ccc(NC(=O)CSc2ccc(NC(C)=O)cc2)cc1S(=O)(=O)N1CCCCC1,-26%,7%,?,-4.0%,-16%,-2%,-1%,5%
Cc1ccc(S(=O)(=O)CCC(=O)N2CCc3ccccc32)cc1,16%,?,8%,3.1%,0%,-6%,-4%,2%
Cc1ccc(/C=C/C(=O)c2ccccc(=O)c2O)c(C)c1,?,?,?,-7.4%,-39%,1%,?,?
COCCCNC(=O)c1cnn(-c2ccccc2Cl)c1C1CCN(C(=O)OC(C)(C)C)CC1,-5%,·,?,-1.7%,·,?,·,·
CC1(C)C2CCC1(CS(=O)(=O)N1CCN(c3ccccc3F)CC1)C(=O)C2 (stereo not given),3%,·,·,·,-11%,·,-9%,-16%
COc1ccc(Br)cc1CN1CCC(N2CCCC2)CC1,-8%,·,·,·,5%,·,-1%,3%
COc1cc2c(cc1OC)C(COc1ccc3c(C)cc(=O)oc3c1)N(C(=O)c1ccc(Cl)cc1)CC2 (stereo not given),-23%,-12%[46.1 µM],-1%[46.1 µM],3.0%,·,-5%,·,·
CC(=O)Nc1ccc2nc(SCC(=O)O)sc2c1,1%,16%,0%,0.6%,-1%,4%,-3%,3%
O=C(Nc1nc2c(Cl)c(Cl)ccc2s1)C1CC1,-4%,·,·,·,-21%,·,0%,1%
# Following part:
SMILES,2A StopGo,MARV entry inh,Lassa entry inh,Cruzain Triton,NS1 function inh,Cruzain noTriton,RE007 growth inh,SARS PLP yeast
COc1cc(-n2c(=S)[nH]c3ccc(C)cc3c2=O)c(Cl)cc1Cl,16%,5.6µM*,?,·,·,·,6%,-17%
Cc1ccc(NC(=O)Cn2cc(C(=O)C3CC3)c3ccccc32)cc1,-7%&-13%,-2%&1%[46.1 µM],-17%,0.1%,5%,-11%,2%,-2%
Cc1ccc(C(=O)Nc2cccc([N+](=O)[O-])c2)cc1S(=O)(=O)Nc1ccc(NC(=O)c2ccccc2)cc1,27%,?,?,-2.2%,-18%,?,-2%,-6%
Cn1cc(C(=O)c2cccc(Cl)c2)cc1/C=N\O,18%,3%[46.1 µM],-24%,·,·,·,9%,0%
Cc1cccc(C(=O)Nc2ccc(S(=O)(=O)N3CCOCC3)cc2C)c1,2%,3%,11%,·,-4%,·,-1%,0%
O=C(NCc1ccc(F)cc1)c1ccc2nc(N3CCCCC3)sc2c1,39%[activator],?,12%[46.1 µM],-8.4%,·,11%,·,·
